# ClpP mod: qHTS Assay for Activators of ClpP; Potency, µM (titrated, usually from 57.5 µM), without a hit: at the highest dose activity change, negative = active; 340,000 tested, 1.9% active; purified B. subtilis ClpP, FRET peptide cleavage, 20 min; ATP-dependent Clp protease proteolytic subunit (Bacillus subtilis (strain 168)), P80244; active = well fitted falling curve with a large enough effect; inconclusive = small, poorly fitted or top-dose-only effect; inactive = no such curve, though single readings can be large or run the other way; also: the source files actives as falling curves though it sought activators and does not explain the sign; nearly all actives have a fitted effect of over 65% in size; many hits overshoot -100%
# Target sequence (P80244 whole entry, looked up): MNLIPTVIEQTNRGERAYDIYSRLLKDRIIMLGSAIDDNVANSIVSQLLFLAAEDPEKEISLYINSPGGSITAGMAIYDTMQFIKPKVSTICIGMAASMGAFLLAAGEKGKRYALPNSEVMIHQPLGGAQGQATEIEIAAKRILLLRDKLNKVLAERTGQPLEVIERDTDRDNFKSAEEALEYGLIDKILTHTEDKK
#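 ClpP 10 microg/mL final, pH 8 Tris/KCl buffer with BSA, glycerol, Tween-20; compound pinned in; FRET-FV substrate; RT 20 min; Ex320/Em430; ΔFRET vs ADEP 5.8 microM, DMSO, no enzyme.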
# Active calls of the source: *; ? = inconclusive. Potency is read from the fitted curve at half-maximal effect. An excerpt, so the mix of outcomes need not match the whole.
Compound	ClpP mod
CCc1ccc(C(=O)C[N+]2(C)CCOCC2)cc1	-1.3%
COc1ccc(CNc2nc(-c3ccco3)nn2C(=O)CC(C)C)cc1	4.5%
O=C(CCC1N=C2c3ccccc3N=C(SCC(=O)Nc3ccccc3F)N2C1=O)NCc1cccs1 (stereo unspecified)	-14.1%
CCOC(=O)N1CCc2c(sc3c2c(=O)n(Cc2ccccc2)c(=O)n3Cc2cccc(Cl)c2)C1	2.3%
COc1cccc(Nc2nc(-c3ccccc3)c3cc(C)ccc3n2)c1	-9.3%
CN(C(=O)COC(=O)c1ccccc1OCC(=O)Nc1ccc(Br)cc1)c1ccccc1	-6.3%
Cc1cc(C)cc(NC(=O)Cn2cc(C(=O)c3ccncc3)c(=O)c3cc(C)c(C)cc32)c1	-7.5%
O=C(O)c1ccc(NC(=O)c2cc(S(=O)(=O)N3CCCCC3)c(Cl)cc2Cl)cc1	-1.5%
CCCOc1ccccc1-c1nc(SCC(=O)c2ccccc2)n[nH]1	0.0%
COc1ccccc1NC(=O)c1c(NC(=O)c2ccccc2F)sc2c1CCC2	-5.7%
CCOC(=O)c1cccc(NC(=O)CCc2nc3cccnc3n2-c2ccccc2)c1	-3.3%
CCOc1ccc(S(=O)(=O)N(CC(=O)Nc2cccnc2)c2ccccc2)cc1	4.7%
CSc1ncc(C(=O)N2CCN(c3cccc(Cl)c3)CC2)c(C)n1	-0.3%
Cc1ccc(CN2C(=O)c3ccccc3Sc3ccc(C(=O)NC4CCCC4)cc32)cc1	0.2%
CCCn1nc(NC(=O)c2cccc(Cl)c2)c2cc3cccc(C)c3nc21	-22.0%
O=C(Nc1cccc(C(F)(F)F)c1)c1cc(-c2ccc(Cl)s2)nc2ccccc12	3.9%
CCOc1cccc(-c2nc3ccccc3c(=O)o2)c1	-0.6%
Cc1ccccc1C(=O)Nc1ccc(OCc2cc(=O)n3ccccc3n2)cc1	-0.2%
CCc1ccc(C(=O)c2cn(CC(=O)Nc3ccc4c(c3)OCO4)c3ccc(Cl)cc3c2=O)cc1	-0.1%
CCC(CC)C(=O)NC1CC(=O)N(c2ccc3c(c2)OCCO3)C1 (stereo unspecified)	-2.7%
O=C(NCC(c1ccc2c(c1)OCO2)N1CCN(c2ccccc2F)CC1)c1ccccc1F (stereo unspecified)	-2.1%
CCc1cccc(C)c1Nc1c(-c2ccc(N(C)C)cc2)nc2ncccn12	1.1%
CC(C)c1ccc(NC(=O)C2CCN(C(=O)c3ccc(F)cc3)CC2)cc1	2.3%
COCC(=O)Nc1c(C(=O)Nc2ccc(C)cc2)oc2ccccc12	-2.8%
COc1ccc(C2=NC3(CCCCCC3)N(CC(=O)Nc3cccc(Cl)c3)C2=O)cc1	-21.8%
NC(=O)C1CCN(C(=O)c2ccc3c(c2)N(Cc2cccc(Cl)c2)C(=O)c2ccccc2S3(=O)=O)CC1	-2.6%
CC(C)OCCCNC(=O)c1cn(C)c2ccc(S(=O)(=O)N3CCCCCC3)cc2c1=O	-2.5%
CC1=C(C(=O)Nc2ccccc2C)C(c2ccco2)n2ncnc2N1 (stereo unspecified)	-1.7%
CCOc1ccccc1-c1nnc(SCc2ccc(Cl)cc2)o1	-0.7%
COc1cccc(NC(=O)CSc2nc(C)c(Cc3ccccc3)c(=O)[nH]2)c1	-2.1%

# Gathered by group, the compounds so far containing an aryl thioether with sulfur outside any ring.
Compound	ClpP mod
CCCOc1ccccc1-c1nc(SCC(=O)c2ccccc2)n[nH]1	0.0%
CSc1ncc(C(=O)N2CCN(c3cccc(Cl)c3)CC2)c(C)n1	-0.3%
CCOc1ccccc1-c1nnc(SCc2ccc(Cl)cc2)o1	-0.7%
COc1cccc(NC(=O)CSc2nc(C)c(Cc3ccccc3)c(=O)[nH]2)c1	-2.1%

# (list continues)
Compound	ClpP mod
CCC(C)NC(=O)c1ccc2c(c1)N=C(C)c1cc(C)ccc1S2 (stereo unspecified)	-4.2%
Cc1ccc(NC(=O)C(NS(=O)(=O)c2ccc3c(c2)CCC(=O)N3)c2ccccc2)cc1C (stereo unspecified)	-3.0%
COc1cc2c(=O)c(C(=O)c3ccc(C)c(C)c3)cn(Cc3ccccc3)c2cc1OC	-4.3%
CCOC(=O)c1cccc(NC(=O)C(C)n2c(C)c3cnn(-c4ccccc4)c(=O)c3c2C)c1 (stereo unspecified)	-2.1%
Cc1ccccc1CN1c2ccccc2-c2nc(SCC(=O)NCCc3ccccc3)ncc2S1(=O)=O	?
O=S(=O)(c1cccc(Cl)c1)c1nnn2c1nc(NC1CCCCCC1)c1sccc12	11.8%
Cc1cc(OCC(=O)Nc2ccc(C(=O)OC3CCCCC3)cc2)cc(C)c1Cl	1.5%
CC(C)c1ccc(C2c3c(-c4ccccc4O)n[nH]c3C(=O)N2CCc2ccccc2)cc1 (stereo unspecified)	-5.3%
Cc1nc2ccc(S(=O)(=O)N(CC(=O)Nc3ccc(F)cc3F)Cc3ccccc3)cc2s1	-0.8%
COc1cc(OC)c(N(C)C(=O)Cn2ncc3c([nH]c4ccccc43)c2=O)cc1Cl	-2.5%
CCOc1cc2[nH]c(=O)n(CCC(=O)N3CCN(c4cccc(Cl)c4)CC3)c(=O)c2cc1OCC	-5.9%
COc1ccccc1C1C=C(c2ccc(F)cc2)Nc2nc(-c3ccc(Cl)cc3)nn21 (stereo unspecified)	-6.8%
Cc1ccc(CNC(=O)CCCCCn2c(=O)c3sccc3n(CC(=O)N3CCCCC3C)c2=O)cc1 (stereo unspecified)	0.4%
COc1ccc(Cn2ccn(Cc3cccc(OC)c3)c(=O)c2=O)cc1	-1.4%
CCOc1ccccc1NC(=O)Cn1c(=O)n(-c2ccc(Cl)cc2)c(=O)c2oc3ccccc3c21	1.2%
COc1ccc(NC(=O)CCCc2nnc3n(C(C)C)c(=O)c4sccc4n23)cc1Cl	0.3%
C=C(C)Cn1c(SCC(=O)Nc2cccc(Cl)c2)nc2sc3c(c2c1=O)CCCC3	-8.9%
COc1ccc(-c2cc(-c3ccccc3)nc(SCC(=O)Nc3ccccc3F)c2C#N)cc1	?
CC(=O)c1ccc(NS(=O)(=O)c2ccc3c(c2)NC(=O)CCS3)cc1	-2.6%
CCCN(CCC)S(=O)(=O)c1ccc2c(c1)N(CC(=O)NCc1ccc(F)cc1Cl)C(=O)CS2	2.7%
CCOc1cc(C(=O)OCc2cc(=O)n3nc(C4CC4)sc3n2)cc(OCC)c1OCC	-1.7%
CCSc1nc2n(n1)C(c1ccc(C(=O)O)cc1)C(C(=O)Nc1ccccc1C)=C(C)N2 (stereo unspecified)	-0.5%
O=C(CCn1cnc2onc(-c3ccc(F)cc3)c2c1=O)N1CCN(c2ccccc2F)CC1	-1.2%
CC(C)c1ccc(NC(=O)C2CCC(CNS(=O)(=O)c3ccc4c(c3)CCCC(=O)N4)CC2)cc1 (stereo unspecified)	-2.5%
Cc1ccc(CNC(=O)c2ccc3c(c2)nc(C)n3-c2cc(C)cc(C)c2)cc1	-0.4%
COc1ccccc1Nc1c2c(nc3ccc(NC(=O)/C=C/c4cc(OC)c(OC)c(OC)c4)cc13)CCCC2	-3.2%
CCc1ccc(CNC(=O)c2cnc3c(C)cccn3c2=O)cc1	3.9%
O=C(c1ccc2c(=O)n(CCc3ccccc3)c(=O)[nH]c2c1)N1CCN(C(=O)c2ccco2)CC1	-15.3%
CCOc1ccc(C(c2c(O)cc(C)n(Cc3ccco3)c2=O)N2CCN(c3ccccc3)CC2)cc1 (stereo unspecified)	1.0%
COc1ccc(N(CC(=O)N2CCc3ccccc3C2)S(=O)(=O)c2ccc(C)cc2)cc1Cl	-2.4%
COc1ccc(-c2nc3c(c(SCC(=O)Nc4cc(C)cc(C)c4)n2)Cc2c(CO)cnc(C)c2O3)cc1	0.4%
CCc1cccc(NS(=O)(=O)c2ccc3c(c2)n(C)c(=O)c(=O)n3C)c1	0.2%
Cc1ccc(OCCSc2nc3ccc(NC(=O)c4ccco4)cc3s2)cc1	-7.8%
Cc1cn2c(=O)cc(COC(=O)C(C)Oc3ccccc3)nc2s1 (stereo unspecified)	-18.9%
O=C(C1COc2ccccc2O1)N(Cc1cccnc1)c1nc2ccc(F)cc2s1 (stereo unspecified)	0.9%
Cc1ccc(C(=O)CCC(=O)Nc2ccc(C)cc2C)cc1	0.6%
COc1ccc(NC(=O)CN2C(=O)CCc3cc(S(=O)(=O)N4CCOCC4)ccc32)cc1Cl	0.5%
COc1ccc(C2CC(=O)c3cnc4c(-c5ccccc5)c(C)nn4c3C2)c(OC)c1 (stereo unspecified)	0.7%
CCOC(=O)N1CCN(Cc2nc3cc(NC(=O)c4ccc(F)cc4)ccc3n2C(C)C)CC1	2.4%
Cc1c(Cl)ccc2sc(NC(=O)c3ccc(S(=O)(=O)N4CCCC4)cc3)nc12	-21.9%
CCOc1ccccc1Nc1nc2ccccc2c2nncn12	?
CCOc1ccc(-n2cc(-c3ccccc3)c3c(NCc4ccccc4)ncnc32)cc1	4.6%
Cc1cccc(NC(=O)CSc2nc3c([nH]c4ccccc43)c(=O)n2C)c1C	-4.6%
COc1ccc(Cl)cc1NC(=O)c1oc2ccc(S(=O)(=O)N3CCCCC3)cc2c1C	-6.3%
Cc1ccc(NC(=O)Cn2c(=O)n(CCCCC(=O)NCCc3ccccc3)c(=O)c3ccccc32)cc1	-0.6%
O=C(c1ccc2c(c1)N(Cc1cccc(Cl)c1)C(=O)c1ccccc1S2)N1CCOCC1	-0.5%
COc1ccc(N2CCN(C(=O)c3cn(C4CCCCC4)c(=O)c4c3c3ccccc3n4C)CC2)cc1	-28.1%
CCc1nnc(SC(CC)C(=O)Nc2cc(C)ccc2C)c2cc3occc3n12 (stereo unspecified)	-11.3%
CCn1nc(C)c(CCN(C)C(=O)Nc2cc(C)cc(C)c2)c1C	1.0%
O=C(COc1ccc(F)cc1)OCc1cc(=O)n2nc(C3CC3)sc2n1	-5.6%
CCN(CC)CCNC(=O)c1ccc(-c2nc(CS(=O)(=O)c3ccc(C)cc3)c(C)o2)cc1	3.8%
COc1ccc(C)c2sc(N3CCN(C(=O)c4ccco4)CC3)nc12	-3.8%
Cc1ccc(Cn2ccn(Cc3ccc(C)cc3)c(=O)c2=O)cc1	-2.5%
COc1ccc(Cn2c(C(=O)O)c(CNC3CCCCC3)c3ccc(C)cc32)cc1	-6.6%
Cc1cc(N2CCC(C)CC2)nc2ccc(NC(=O)Cc3ccccc3Br)cc12	3.8%
Cc1ccc(OCCn2nnc3sc4c(c3c2=O)CCC(C)C4)cc1 (stereo unspecified)	-0.6%
COc1cc(OC)c2c(C)c(CC(=O)N3CCCCC3)c(=O)oc2c1	3.9%
O=C(C1CCCN(S(=O)(=O)c2ccc(Br)s2)C1)N1CCN(c2cccc(Cl)c2)CC1 (stereo unspecified)	-0.7%
COc1cccc(N2CCN(C(=O)Cn3ncc4c3-c3ccccc3OC4)CC2)c1	-3.5%
COc1cccc(NS(=O)(=O)c2ccc3[nH]cc(C(=O)NCCc4ccccc4)c(=O)c3c2)c1	-0.6%

# (list continues)
Compound	ClpP mod
COc1ccc(N(C)C(=O)c2cc3c(s2)-c2ccccc2OC3)cc1	-1.2%
Cc1cccc(NC(=O)C(=O)NCC(c2cccnc2)N2CCc3ccccc3C2)c1C (stereo unspecified)	0.2%
Cn1c(CNC(=O)CSc2nc(-c3cccc(Cl)c3)nc3cc(=O)[nH]n23)nc2ccccc21	-1.8%
Cc1ccc(N2C(=O)CCSC23C(=O)N(Cc2ccc(F)cc2)c2ccccc23)cc1 (stereo unspecified)	-0.9%
Cc1ccc(C)c(-n2c3nc(=O)[nH]c(=O)c-3cc3c(C)nn(-c4ccccc4)c32)c1	3.8%
Oc1cc2cc(-c3csc(-c4ccc(F)cc4)n3)ccc2[nH]1	-4.9%
CCN(CC)c1ccc(NC(=O)COCc2cc(-c3ccc4c(c3)OCO4)on2)c(C)c1	-10.2%
O=C(NCCc1ccc(Cl)cc1)C(=O)NCC(c1ccco1)S(=O)(=O)c1ccccc1 (stereo unspecified)	-0.6%
COc1ccc(-c2[nH]c(-c3cccc(OC)c3)nc2SCC(=O)Nc2ccc3c(c2)OCO3)cc1	-6.8%
COc1ccc(CCNC(=O)CCCn2c(=O)c3ccccc3n(Cc3ccccc3)c2=O)cc1OC	-7.3%
CCCn1c2ccccc2c2cnn(CC(=O)NCCc3ccccc3)c(=O)c21	4.0%
Cc1ccccc1OC(=O)c1nc(SCc2ccccc2F)ncc1Cl	-0.1%
Cc1ccc(-n2ncc3c(NCCc4ccccc4)ncnc32)cc1Cl	31.6µM*
COc1ccc(Cl)cc1Nc1ncnc2c1c(-c1ccccc1)cn2-c1ccccc1	-1.2%
COc1ccc(/C=C(/C#N)c2nc(-c3ccc(-c4ccccc4)cc3)cs2)cc1	0.2%
COc1ccc(C(C)C)cc1S(=O)(=O)NCCc1c(C)[nH]c2c(Cl)cccc12	-3.3%
O=C1Nc2ccccc2C1Cc1ccc(Br)cc1 (stereo unspecified)	-1.6%

# Taken from above:
# `Cc1ccc(N2C(=O)CCSC23C(=O)N(Cc2ccc(F)cc2)c2ccccc23)cc1` (stereo unspecified) – ClpP mod = -0.9%
# `Oc1cc2cc(-c3csc(-c4ccc(F)cc4)n3)ccc2[nH]1` – ClpP mod = -4.9%
# `Cc1ccc(C)c(-n2c3nc(=O)[nH]c(=O)c-3cc3c(C)nn(-c4ccccc4)c32)c1` – ClpP mod = 3.8%
# `CCCn1c2ccccc2c2cnn(CC(=O)NCCc3ccccc3)c(=O)c21` – ClpP mod = 4.0%
# `Cn1c(CNC(=O)CSc2nc(-c3cccc(Cl)c3)nc3cc(=O)[nH]n23)nc2ccccc21` – ClpP mod = -1.8%
# `O=C1Nc2ccccc2C1Cc1ccc(Br)cc1` (stereo unspecified) – ClpP mod = -1.6%
